Ran importin: inhibitors of Ran–importin-beta complex formation, primary screen, biochemical, CFP-Ran/YFP-importin-beta FRET, RCC1, cell-free (AID 434961); inhibition, %; 7,700 tested, 0.2% active; Regulator of chromosome condensation (Homo sapiens) + GTP-binding nuclear protein Ran …; CFP-Ran/YFP-importin-beta FRET, cell-free; hits give high values;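 active = more than half of the replicate wells above 15% inhibition; inconclusive = exactly half above it; inactive = fewer than half above it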;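 also: 0% = DMSO wells and 100% inhibition = RanGDP control wells on each plate; stock of unstated strength diluted about 400-fold; mean of two wells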
An asterisk follows results filed as active; ? = inconclusive. A portion of the library; count on the stated rates, not on these rows.

Ran importin	structure
11	C[C@H](CO)N1C[C@H](C)[C@H](CN(C)S(=O)(=O)c2cn(C)cn2)Oc2ccc(NC(=O)c3ccncc3)cc2CC1=O
0.9	C[C@H]1CN([C@@H](C)CO)C(=O)Cc2cc(NC(=O)Cc3ccccc3)ccc2O[C@@H]1CN(C)C(=O)Nc1ccccc1
-2.5	C[C@H](CO)N1C[C@H](C)[C@H](CN(C)C(=O)C2CCCCC2)OCCCC[C@H](C)Oc2ccc(NS(=O)(=O)c3cn(C)cn3)cc2C1=O
0.9	C[C@H](CO)N1C[C@H](C)[C@@H](CN(C)C(=O)Nc2ccc3c(c2)OCO3)Oc2ccc(NC(=O)CCC(F)(F)F)cc2C1=O
-1.0	COc1ccc(CN(C)C[C@@H]2OCCCC[C@@H](C)Oc3ccc(NC(=O)Nc4c(C)noc4C)cc3C(=O)N([C@H](C)CO)C[C@@H]2C)cc1
0.9	C[C@@H]1CN([C@@H](C)CO)C(=O)c2cccc(NS(C)(=O)=O)c2O[C@H]1CN(C)S(=O)(=O)c1cn(C)cn1
?	C[C@H]1CCCCO[C@@H](CN(C)C(=O)Nc2ccccc2)[C@@H](C)CN([C@@H](C)CO)C(=O)c2cc(NC(=O)Cc3ccccc3)ccc2O1
0.1	C[C@H](CO)N1C[C@H](C)[C@@H](CN(C)C(=O)Nc2cccc3ccccc23)Oc2ccc(NC(=O)CCC(F)(F)F)cc2C1=O
-0.3	C[C@H]1CN([C@@H](C)CO)C(=O)c2cc(NC(=O)C3CC3)ccc2O[C@@H]1CN(C)C(=O)Nc1ccccc1
-4.9	Cc1noc(C)c1NC(=O)Nc1ccc2c(c1)C(=O)N([C@H](C)CO)C[C@H](C)[C@@H](CN(C)C(=O)NC(C)C)OCCCC[C@@H](C)O2
-1.7	C[C@@H]1CCCCO[C@H](CN(C)C(=O)Nc2cccc3ccccc23)[C@@H](C)CN([C@H](C)CO)C(=O)c2cc(NC(=O)c3ccncc3)ccc2O1
-0.2	C[C@@H]1CN([C@@H](C)CO)C(=O)Cc2cc(NC(=O)C3CC3)ccc2O[C@H]1CN(C)S(=O)(=O)c1cccs1
-1.2	C[C@H]1CN([C@@H](C)CO)C(=O)c2cccc(NS(C)(=O)=O)c2O[C@@H]1CN(C)Cc1ccccc1
-1.3	C[C@H](CO)N1C[C@H](C)[C@@H](CN(C)C)OCCCC[C@H](C)Oc2ccc(NC(=O)Nc3cccc4ccccc34)cc2C1=O
-0.1	C[C@@H]1CCCCO[C@@H](CN(C)S(=O)(=O)c2ccccc2)[C@@H](C)CN([C@H](C)CO)C(=O)c2cc(NC(=O)CCCN(C)C)ccc2O1
2.9	C[C@H](CO)N1C[C@H](C)[C@H](CN(C)C(=O)NC2CCCCC2)Oc2ccc(NS(=O)(=O)c3ccc(Cl)cc3)cc2C1=O
-0.3	COc1ccc(S(=O)(=O)N(C)C[C@H]2Oc3ccc(NS(=O)(=O)c4ccc(Cl)cc4)cc3C(=O)N([C@@H](C)CO)C[C@@H]2C)cc1
?	C[C@H]1CN([C@@H](C)CO)C(=O)Cc2cc(NC(=O)NC3CCCCC3)ccc2O[C@@H]1CN(C)S(=O)(=O)c1ccc(Cl)cc1
1.4	C[C@H]1CN([C@@H](C)CO)C(=O)c2cccc(NC(=O)Nc3ccc(C(F)(F)F)cc3)c2O[C@H]1CN(C)S(=O)(=O)c1cccs1
?	COc1ccc(CN(C)C[C@H]2Oc3c(NC(=O)NC4CCCCC4)cccc3C(=O)N([C@@H](C)CO)C[C@@H]2C)cc1
9.5	C[C@@H]1CN([C@H](C)CO)C(=O)c2cc(NS(=O)(=O)c3cn(C)cn3)ccc2O[C@H]1CN(C)C(=O)Nc1ccc(F)cc1
3.7	C[C@@H]1CN([C@@H](C)CO)C(=O)c2cccc(NS(=O)(=O)c3ccccc3)c2O[C@H]1CN(C)C(=O)Nc1ccc2c(c1)OCO2
-1.5	COc1ccc(CN(C)C[C@H]2Oc3ccc(NC(=O)Nc4ccc(C(F)(F)F)cc4)cc3C(=O)N([C@H](C)CO)C[C@H]2C)cc1
?	C[C@@H]1CN([C@@H](C)CO)C(=O)c2cccc(NS(=O)(=O)c3ccc(Cl)cc3)c2O[C@H]1CN(C)CC1CC1
1.2	CC(C)NC(=O)N(C)C[C@@H]1OCCCC[C@H](C)Oc2ccc(NC(=O)Cc3ccccc3)cc2C(=O)N([C@@H](C)CO)C[C@H]1C
-0.8	Cc1noc(C)c1NC(=O)N(C)C[C@H]1OCCCC[C@H](C)Oc2ccc(N(C)C)cc2C(=O)N([C@H](C)CO)C[C@H]1C
-0.2	C[C@@H]1CCCCO[C@H](CN(C)C)[C@@H](C)CN([C@@H](C)CO)C(=O)c2cc(NS(=O)(=O)c3ccc(Cl)cc3)ccc2O1
-5.3	C[C@@H]1CN([C@H](C)CO)C(=O)c2cc(NC(=O)Nc3ccc4c(c3)OCO4)ccc2O[C@H]1CN(C)Cc1ccc(C(=O)O)cc1
-3.9	C[C@@H]1CN([C@@H](C)CO)C(=O)CCCn2nncc2CO[C@@H]1CN(C)C(=O)Nc1ccc2c(c1)OCCO2
3.9	C[C@H]1CCCCO[C@@H](CN(C)C(=O)Nc2ccccc2)[C@@H](C)CN([C@@H](C)CO)C(=O)c2cc(NC(=O)Nc3ccccc3)ccc2O1
0.2	C[C@H](CO)N1C[C@H](C)[C@H](CN(C)C(=O)Nc2cccc3ccccc23)Oc2ncccc2C1=O
-2.3	C[C@H]1CN([C@@H](C)CO)C(=O)c2cc(NC(=O)Nc3ccc(F)cc3)ccc2O[C@H]1CN(C)C(=O)NC1CCCCC1
-1.6	C[C@@H]1CN([C@@H](C)CO)C(=O)c2cccc(NS(=O)(=O)c3cn(C)cn3)c2O[C@H]1CN(C)CC1CC1
0.0	C[C@@H]1CN([C@H](C)CO)C(=O)c2cc(NC(=O)CCN3CCOCC3)ccc2O[C@@H]1CN(C)C
-2.8	CC(C)NC(=O)Nc1cccc2c1O[C@H](CN(C)C)[C@H](C)CN([C@@H](C)CO)C2=O
3.0	C[C@@H]1CN([C@@H](C)CO)C(=O)c2cccc(NC(=O)C3CCOCC3)c2O[C@@H]1CN(C)Cc1ccc2c(c1)OCO2
2.1	Cc1ccc(S(=O)(=O)Nc2ccc3c(c2)C(=O)N([C@@H](C)CO)C[C@@H](C)[C@H](CN(C)C(=O)Nc2c(C)noc2C)O3)cc1
0.5	C[C@H](CO)N1C[C@H](C)[C@@H](CN(C)C(=O)Nc2ccc(F)cc2)Oc2ccc(NC(=O)Nc3ccccc3)cc2CC1=O
6.1	CC(C)NC(=O)N(C)C[C@H]1OCCCC[C@H](C)Oc2ccc(NC(=O)CCC(F)(F)F)cc2C(=O)N([C@H](C)CO)C[C@H]1C
3.9	C[C@@H]1CN([C@@H](C)CO)C(=O)c2cccc(NS(C)(=O)=O)c2O[C@H]1CN(C)C(=O)NC1CCCCC1
-2.9	C[C@@H]1CCCCO[C@H](CN(C)C(=O)CCCN(C)C)[C@@H](C)CN([C@H](C)CO)C(=O)c2cc(NS(=O)(=O)c3cccs3)ccc2O1
-5.7	C[C@@H]1CCCCO[C@@H](CN(C)S(=O)(=O)c2ccccc2)[C@@H](C)CN([C@H](C)CO)C(=O)c2cc(N(C)C)ccc2O1
5.7	C[C@H]1CCCCO[C@H](CN(C)Cc2ccc(C(=O)O)cc2)[C@@H](C)CN([C@@H](C)CO)C(=O)c2cc(NC(=O)Nc3ccc(F)cc3)ccc2O1
-0.7	C[C@@H]1CN([C@@H](C)CO)C(=O)c2cc(NC(=O)CCCN(C)C)ccc2O[C@@H](C)CCCCO[C@@H]1CN(C)S(=O)(=O)c1cccs1
-2.3	C[C@H](CO)N1C[C@H](C)[C@@H](CN(C)C(=O)NC2CCCCC2)Oc2ccc(NC(=O)NC3CCCCC3)cc2C1=O

3 compounds from above, sorted by the number in Ran importin, lowest first:
Ran importin	structure
-0.1	C[C@@H]1CCCCO[C@@H](CN(C)S(=O)(=O)c2ccccc2)[C@@H](C)CN([C@H](C)CO)C(=O)c2cc(NC(=O)CCCN(C)C)ccc2O1
1.4	C[C@H]1CN([C@@H](C)CO)C(=O)c2cccc(NC(=O)Nc3ccc(C(F)(F)F)cc3)c2O[C@H]1CN(C)S(=O)(=O)c1cccs1
2.9	C[C@H](CO)N1C[C@H](C)[C@H](CN(C)C(=O)NC2CCCCC2)Oc2ccc(NS(=O)(=O)c3ccc(Cl)cc3)cc2C1=O

Individual results from the results shown.
C[C@@H]1CCCCO[C@@H](CN(C)S(=O)(=O)c2ccccc2)[C@@H](C)CN([C@H](C)CO)C(=O)c2cc(N(C)C)ccc2O1 | Ran importin = -5.7
C[C@H](CO)N1C[C@H](C)[C@H](CN(C)C(=O)Nc2cccc3ccccc23)Oc2ncccc2C1=O | Ran importin = 0.2
CC(C)NC(=O)N(C)C[C@H]1OCCCC[C@H](C)Oc2ccc(NC(=O)CCC(F)(F)F)cc2C(=O)N([C@H](C)CO)C[C@H]1C | Ran importin = 6.1

An excerpt of these results, field by field.
> C[C@H]1CN([C@@H](C)CO)C(=O)c2cc(NC(=O)C3CC3)ccc2O[C@@H]1CN(C)C(=O)Nc1ccccc1
  Ran importin: -0.3
> Cc1noc(C)c1NC(=O)Nc1ccc2c(c1)C(=O)N([C@H](C)CO)C[C@H](C)[C@@H](CN(C)C(=O)NC(C)C)OCCCC[C@@H](C)O2
  Ran importin: -4.9
> C[C@@H]1CCCCO[C@H](CN(C)C(=O)Nc2cccc3ccccc23)[C@@H](C)CN([C@H](C)CO)C(=O)c2cc(NC(=O)c3ccncc3)ccc2O1
  Ran importin: -1.7
> C[C@@H]1CN([C@@H](C)CO)C(=O)Cc2cc(NC(=O)C3CC3)ccc2O[C@H]1CN(C)S(=O)(=O)c1cccs1
  Ran importin: -0.2

New compounds follow:
Ran importin	structure
-1.8	COc1ccc(CN(C)C[C@@H]2Oc3c(NC(=O)Nc4cccc5ccccc45)cccc3C(=O)N([C@@H](C)CO)C[C@@H]2C)cc1
3.2	C[C@@H]1CN([C@@H](C)CO)C(=O)Cc2cc(N(C)C)ccc2O[C@@H]1CN(C)Cc1ccccc1
-0.9	C[C@H]1CN([C@@H](C)CO)C(=O)c2cc(NC(=O)Nc3ccc4c(c3)OCO4)ccc2O[C@H]1CN(C)S(=O)(=O)c1cn(C)cn1
?	C[C@H]1CN([C@@H](C)CO)C(=O)c2cccc(NS(=O)(=O)c3cn(C)cn3)c2O[C@H]1CN(C)Cc1ccc2c(c1)OCO2
-1.2	C[C@H](CO)N1C[C@H](C)[C@@H](CN(C)Cc2ccc(C(F)(F)F)cc2)Oc2c(NS(=O)(=O)c3cn(C)cn3)cccc2C1=O
-4.8	Cc1noc(C)c1NC(=O)Nc1cccc2c1O[C@H](CN(C)C(=O)Nc1c(C)noc1C)[C@H](C)CN([C@@H](C)CO)C2=O
-1.5	C[C@H](CO)N1C[C@H](C)[C@@H](CN(C)C(=O)Nc2ccccc2)Oc2ccc(N(C)C)cc2CC1=O
-1.4	C[C@H](CO)N1C[C@H](C)[C@@H](CN(C)S(=O)(=O)c2ccc(Cl)cc2)Oc2ccc(NC(=O)NC3CCCCC3)cc2CC1=O
0.6	C[C@@H]1CN([C@H](C)CO)C(=O)CCCn2nncc2CO[C@H]1CN(C)Cc1ccncc1
2.9	C[C@@H]1CCCCO[C@@H](CN(C)Cc2ccc(C(=O)O)cc2)[C@H](C)CN([C@H](C)CO)C(=O)c2cc(NC(=O)c3ccncc3)ccc2O1
-0.6	C[C@H]1CN([C@@H](C)CO)C(=O)Cc2cc(NC(=O)Nc3ccc(F)cc3)ccc2O[C@@H]1CN(C)Cc1ccc(C(=O)O)cc1
-2.7	C[C@@H]1CN([C@H](C)CO)C(=O)c2cc(NS(=O)(=O)c3ccccc3)ccc2O[C@@H](C)CCCCO[C@H]1CN(C)C(=O)C1CCCCC1
-0.1	C[C@@H]1CCCCO[C@@H](CN(C)Cc2ccc3c(c2)OCO3)[C@@H](C)CN([C@H](C)CO)C(=O)c2cc(NS(=O)(=O)c3ccccc3)ccc2O1
1.9	CC(C)NC(=O)Nc1ccc2c(c1)C(=O)N([C@@H](C)CO)C[C@@H](C)[C@@H](CN(C)C(=O)CCCN(C)C)OCCCC[C@H](C)O2
-4.4	C[C@@H]1CN([C@@H](C)CO)C(=O)Cc2cc(NC(=O)CCN3CCOCC3)ccc2O[C@@H]1CN(C)Cc1ccncc1
1.5	CC(C)NC(=O)N(C)C[C@H]1Oc2ccc(NC(=O)C3CC3)cc2C(=O)N([C@@H](C)CO)C[C@@H]1C
-5.1	C[C@@H]1CN([C@@H](C)CO)C(=O)c2cc(N(C)C)ccc2O[C@@H]1CN(C)C(=O)Nc1ccc(F)cc1

Source: PubChem BioAssay
